Screening results (PubChem)
TRPML1 agonist: agonists of human TRPML1 channel; TRPML1-expressing cells, Ca2+ dye fluorescence, FDSS; host cell line not named in the record; reference of the full effect not given here; AID 624414; activation, % (concentration not given with the values); 410,000 compounds, 0.12% hits; Q9GZU1; in the data active = activation above about 50%; inconclusive = about 30% to 50%; inactive = below about 30%; further: 0% is about no effect; the text of the record puts the active cut at 80%
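Calcium fluorescence on an FDSS kinetic reader gave the read-out. Tet-induced TRPML1-DL cells were plated overnight, dye-loaded (Ca8 with quencher, 45-90 min, room temperature, dark), then read 110 s after compound addition, and again 110 s after 4uM final 54-4 (EC80).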
TRPML1 blocker: blocks the human TRPML1 channel | Q9GZU1 | TRPML1-inducible cells, Ca2+ dye fluorescence, FDSS; hits give low values; inhibition of EC80 agonist-evoked calcium signal | activity change, negative = inhibition, % (test concentration not listed) | 390,000 compounds, 0.02% hits; in the data active means activity change below about -50%; inconclusive means about -30% to -50%; inactive means above about -30%;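 further: stimulus is agonist 54-4 at its EC80 concentration; on the % scale 0 is the no-effect control and ±100 the full control effect; compound concentration not given in the record; the text of the record puts the active cut at -80%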
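TRPML1-DL cells, Tet-induced overnight (~16 h, 37 °C) at 1,500 cells/well, were loaded with Ca8 no-wash dye plus quencher for 45-90 min at room temperature. Compounds were pinned during FDSS kinetic reading; agonist 54-4 at EC80 (4 uM final) then added.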
Six1-Eya2 blk: Six1/Eya2 interaction inhibition; Q15475+O00167; AlphaScreen GST-Six1/His-Eya2 binding, biochemical; hits give low values; control for the full effect not named in the record; activity change, % (no concentration beside the values); 360,000 compounds, 0.56% hits; AID 651725; in the data active = activity change below about -65%; inconclusive = about -30% to -65%; inactive = above about -30%; further: on the % scale 0 is the no-effect control and ±100 the full control effect
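Compounds are tested against tagged Six1 and Eya2 proteins bridged by glutathione donor and nickel acceptor beads; after a one-hour incubation at 37 °C without light, AlphaScreen emission is recorded.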
TRPV1 potentiator: human TRPV1 potentiation | potentiation, % at 8.33 µM | TRPV1-expressing cells, Fluo-8 calcium influx, capsaicin EC20 potentiation; host cell line not named in the record; control for the full effect not named in the record | 320,000 compounds, 0.02% hits | AID 540277 | Q8NER1; active means potentiation above 80%; inconclusive means 30% to 80%; inactive means below 30%; further: 0% is about no effect
Target sequence (Q8NER1 whole entry, looked up): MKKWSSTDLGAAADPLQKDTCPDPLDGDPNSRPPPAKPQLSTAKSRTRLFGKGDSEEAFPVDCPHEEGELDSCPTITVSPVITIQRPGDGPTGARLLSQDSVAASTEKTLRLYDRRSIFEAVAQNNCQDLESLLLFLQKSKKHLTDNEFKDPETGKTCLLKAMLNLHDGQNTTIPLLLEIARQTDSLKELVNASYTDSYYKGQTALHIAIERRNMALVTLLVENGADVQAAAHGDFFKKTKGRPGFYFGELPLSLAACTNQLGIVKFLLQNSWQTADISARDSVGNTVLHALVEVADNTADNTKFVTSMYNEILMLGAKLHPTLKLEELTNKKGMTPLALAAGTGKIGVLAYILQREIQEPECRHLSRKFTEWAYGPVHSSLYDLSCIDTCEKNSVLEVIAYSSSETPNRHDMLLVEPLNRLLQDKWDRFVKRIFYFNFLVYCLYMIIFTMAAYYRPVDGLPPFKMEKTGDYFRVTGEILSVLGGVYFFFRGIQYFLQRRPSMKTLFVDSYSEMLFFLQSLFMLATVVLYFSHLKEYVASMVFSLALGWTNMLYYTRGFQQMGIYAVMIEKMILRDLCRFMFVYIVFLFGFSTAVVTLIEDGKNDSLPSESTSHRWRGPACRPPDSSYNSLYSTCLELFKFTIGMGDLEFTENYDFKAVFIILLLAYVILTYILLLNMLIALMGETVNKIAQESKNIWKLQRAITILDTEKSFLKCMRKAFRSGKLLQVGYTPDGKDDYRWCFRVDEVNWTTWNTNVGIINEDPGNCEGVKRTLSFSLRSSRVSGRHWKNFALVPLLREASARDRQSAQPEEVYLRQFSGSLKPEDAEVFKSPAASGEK
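Fluo-8 calcium influx in TRPV1-expressing cells, kinetic read (ex 480/em 520 nm). Compound added and read 3 min for agonist activity, followed by capsaicin at EC20 final and 2 min further read for enhancement.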
D2 PAM: human D2 receptor positive allosteric modulation; DiscoveRx D2 beta-arrestin cells, luminescence, 90 min; 100% = 57 uM dopamine signal; potentiation, % (concentration not given with the values); 360,000 compounds, 0.23% hits; AID 624464; active = potentiation of 50% or more; inconclusive = 30% to 50%; inactive = 30% or less;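 further: tested on top of an EC20 dose of dopamine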
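PathHunter D2 cells, attached overnight at 37 deg C, received compound in DMSO plus dopamine at EC20 (50 nM final) for 90 min at 37 deg C. Beta-arrestin recruitment was read as luminescence after 1 h with detection reagent at ambient temperature.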
CtBP-E1A inh: blocks the CtBP interaction with E1A; AlphaScreen GST-E1A/His-CtBP binding, 1536-well; hits give low values; control for the full effect not named in the record; activity change, % (no concentration beside the values); 340,000 compounds, 0.49% hits; in the data active means activity change below about -65%; inconclusive means about -30% to -65%; inactive means above about -30%; further: on the % scale 0 is the no-effect control and ±100 the full control effect
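AlphaScreen with 125 nM GST-E1A and 125 nM His-CtBP (5X stocks) in Tris pH 8.0, 300 mM NaCl, BSA, Tween 20, TCEP. Compounds preincubated 2 h at 37 deg C, then glutathione donor/nickel acceptor beads added for 1 h at 37 deg C in dark.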
Numbers without * were called inactive; ? = inconclusive; . = not tested or not shown.

SMILES	TRPML1 agonist	TRPML1 blocker	Six1-Eya2 blk	TRPV1 potentiator	D2 PAM	CtBP-E1A inh
Cc1ccc(C2=Nc3ccccc3N=C(c3ccco3)C2)c(O)c1	-1.2	10	2	-12	-3	0
O=C(c1ccc(F)cc1)N1CCN(S(=O)(=O)c2ccc(Br)cc2)CC1	1.2	1	-23	13	-8	.
CCOc1cc(NC(=S)NCCCN2CCOCC2)c(OCC)cc1NC(=O)c1ccccc1C	2.4	3	2	-4	-4	2
ClC1CCCCC1n1nnc2ccccc21 (stereo not drawn)	-0.1	-6	9	.	5	4
COc1ccc(NC(=O)C2Cc3c(-c4ccc(Cl)cc4)ccnc3O2)cn1 (stereo not drawn)	-0.7	.	-7	.	1	-12
O=C(Cn1cc(COc2ccc(Br)cc2)nn1)c1ccc(O)cc1	0.3	-9	-2	.	1	-28
CC(=O)c1c(N2CCCC2)[nH]c(-c2ccccc2)nc1=S	0.1	-10	-6	-3	-20	-3
O=C(NCc1ccccc1)c1cccc(NC(=O)C2CC2)c1	-0.4	28	4	.	.	2
CCC(C)NC(=O)CN1C(=O)CC(C)(C)S(=O)(=O)c2ccccc21 (stereo not drawn)	0.6	24	8	3	-1	6
Cc1ccc(N(C(=O)Cn2nnc(-c3ccc(F)cc3)n2)C(CC(C)C)C(=O)NCC2CCCO2)cc1 (stereo not drawn)	1.7	8	-2	.	1	-5
Cc1cc(NC(=S)Nc2cccc3ccccc23)n[nH]1	-0.3	9	-2	5	-8	16
CC1Cc2cc(/C(O)=C3\C(=O)C(=O)N(CCN4CCOCC4)C3c3ccccc3F)ccc2O1 (stereo not drawn)	1.0	13	7	6	-3	-10
COc1ccccc1C1C(C(N)=O)=C(C)Nc2nc(CCCO)nn21 (stereo not drawn)	-0.6	3	4	12	-7	0
COc1ccc(NC(=O)CN(C)C(=O)c2cc(CN3C(=O)c4ccccc4C3=O)ccc2OC)cc1	-1.0	8	-2	1	24	-3
CN(c1ccccc1)S(=O)(=O)c1cccc(NS(=O)(=O)c2cccc(C(=O)O)c2)c1	0.0	9	7	-6	-1	-6
Cc1cc(O)ccc1C1(c2ccc(O)cc2C)OC(=O)c2ccccc21	-0.1	22	-4	15	-3	-7
Cn1c(SCC(=O)Nc2ccc(F)cc2)nnc1C1CC1	0.0	8	9	24	-2	0
O=C(Cc1ccccc1F)Nc1ccc(S(=O)(=O)N2CCCC2)cc1	-0.2	-1	-2	.	-4	-1
O=[N+]([O-])c1ccc2c(c1)C=C1CCCCC1(N1CCCCC1)O2 (stereo not drawn)	0.3	-19	0	-2	-20	-7
NC(=O)C1=C[C@H](c2csc3ccccc23)C[C@H](OCc2ccc(CO)cc2)O1	1.8	-7	-1	0	5	4
Cc1cc(C(=O)NNC(=O)c2cccc(Cl)c2)no1	4.7	-16	0	.	1	0
CC1CCCCC1N1CCN(C(=O)c2cccc(F)c2)CC1 (stereo not drawn)	1.1	14	4	2	3	-10
C(=C\CSc1nnnn1-c1ccccc1)/CSc1nnnn1-c1ccccc1	0.1	-1	3	5	-10	12
O=C(Oc1ccc(-c2cn3c(n2)SCC3)cc1)c1ccccc1	1.3	21	?	-6	-6	-16
CCc1ccccc1OCCCCN1CCCCC1	-0.3	-10	-2	0	-16	5

By substructure, the compounds so far containing fluorine (six)
SMILES	TRPML1 agonist	TRPML1 blocker	Six1-Eya2 blk	TRPV1 potentiator	D2 PAM	CtBP-E1A inh
O=C(c1ccc(F)cc1)N1CCN(S(=O)(=O)c2ccc(Br)cc2)CC1	1.2	1	-23	13	-8	.
Cc1ccc(N(C(=O)Cn2nnc(-c3ccc(F)cc3)n2)C(CC(C)C)C(=O)NCC2CCCO2)cc1 (stereo not drawn)	1.7	8	-2	.	1	-5
CC1Cc2cc(/C(O)=C3\C(=O)C(=O)N(CCN4CCOCC4)C3c3ccccc3F)ccc2O1 (stereo not drawn)	1.0	13	7	6	-3	-10
Cn1c(SCC(=O)Nc2ccc(F)cc2)nnc1C1CC1	0.0	8	9	24	-2	0
O=C(Cc1ccccc1F)Nc1ccc(S(=O)(=O)N2CCCC2)cc1	-0.2	-1	-2	.	-4	-1
CC1CCCCC1N1CCN(C(=O)c2cccc(F)c2)CC1 (stereo not drawn)	1.1	14	4	2	3	-10

(further entries)
SMILES	TRPML1 agonist	TRPML1 blocker	Six1-Eya2 blk	TRPV1 potentiator	D2 PAM	CtBP-E1A inh
O=C(Cc1c[nH]c2ccccc12)N1CCN(S(=O)(=O)c2ccc(F)cc2)CC1	-0.6	-5	-5	.	0	-1
CC(=O)c1cccc(NC(=O)CSc2nc(=O)n(Cc3ccccn3)c3c2CCC3)c1	-0.3	0	-10	9	-2	6
CCC(C)(C)C1CCC(NC(=O)N2CCN(c3ccccc3O)CC2)CC1 (stereo not drawn)	-0.6	8	-3	-6	5	10
CCNc1nc(NC(C)C)nc(SCCOc2ccc(C)cc2)n1	-0.4	50	3	-30	-3	11
O=C(COC(=O)/C=C/c1ccc(Cl)cc1Cl)NCCC1=CCCCC1	-0.1	19	0	-3	-5	-5
COc1ccc(NC2=CC(=O)CC(c3ccccc3)C2)c(OC)c1 (stereo not drawn)	-0.2	-9	-6	-3	-3	-8
COCCN(C(=O)CCSc1ccc(F)cc1)c1c(N)n(Cc2ccccc2)c(=O)[nH]c1=O	-0.2	-16	8	-5	-9	-5
COc1ccc(OCC(=O)Nc2ccc(NC(=O)c3ccccc3Cl)c(OC)c2)cc1	2.6	6	-8	-3	-11	-18
Cc1ccc(NC(=O)c2c(Cl)nc3ccccn23)cc1	-0.8	7	0	-20	-7	0
CN(C(=O)C1CCC(=O)N(CCCN2CCCC2=O)C1)C(C1CC1)C1CC1 (stereo not drawn)	-0.5	8	1	-15	3	12
O=C(CSc1nncs1)Nc1ccc(Cl)cc1C(F)(F)F	0.1	4	0	-2	-21	4
Cc1nc2nc(CC(=O)O)[nH]n2c(=O)c1[N+](=O)[O-]	0.2	-16	-2	-6	-10	5
CCc1ccccc1S(=O)(=O)Cc1ccc(C(=O)NCc2ccc3c(c2)OCO3)o1	0.8	3	-1	-28	1	-1
Cc1sc(NC(=S)NC(=O)C(C)(C)C)c(C(N)=O)c1C	1.6	3	-13	7	-22	-5
O=C(COc1coc(CN2CCc3ccccc32)cc1=O)Nc1ccccc1	0.3	6	-4	1	-28	0
COCCN(Cc1cc2cc(C)ccc2nc1Cl)C(=O)Nc1ccccc1C	-0.4	4	-2	-8	-8	7
C[C@H](NC(=O)c1ccco1)C(=O)Nc1cccc([N+](=O)[O-])c1	-0.7	11	0	12	-2	1
CC1(C)C[C@H]2C3=CCC4[C@@]5(C)CC[C@H](O[C@@H]6O[C@H](C(=O)O)[C@@H](O)[C@H](O)[C@H]6O)[C@@](C)(CO)C5CC[C@@]4(C)[C@]3(C)C[C@H](O)[C@@]2(CO)[C@@H](O)[C@@H]1O (stereo partly drawn)	-0.8	30	3	.	-26	-1
CCCc1cc(C(=O)Nc2ccc(C(C)=O)cc2)no1	0.1	1	-1	?	-6	3
O=C(Nc1cccc(Cl)c1)c1cc(-c2ccco2)on1	2.0	0	4	12	-20	6
CCOC(=O)N1CCC(c2nc(C)sc2C(=O)O)CC1	0.7	-7	-1	21	-7	12
CC(C)CC(=O)c1c(O)c(C=O)c(O)c2c1O[C@@]1(C)[C@@H](C2)C[C@H]2C[C@@H]1C2(C)C	-0.1	-4	2	.	-11	-4
CC(=O)c1cccc(NC(=O)CN(C)S(=O)(=O)c2ccc3c(c2)CC(C)N3C(C)=O)c1 (stereo not drawn)	-0.8	-18	-2	1	-8	2
CCOc1cc(/C=N/Nc2nc(C)cc(=O)[nH]2)ccc1O	1.3	44	?	-7	-8	?
CCC(C(=O)OCC(=O)Nc1ccc(C(=O)Nc2ccc(OC)cc2)cc1)c1ccccc1 (stereo not drawn)	3.0	6	6	-6	1	3

Two entries picked at random from those above:
SMILES	TRPML1 agonist	TRPML1 blocker	Six1-Eya2 blk	TRPV1 potentiator	D2 PAM	CtBP-E1A inh
O=C(COc1coc(CN2CCc3ccccc32)cc1=O)Nc1ccccc1	0.3	6	-4	1	-28	0
Cc1nc2nc(CC(=O)O)[nH]n2c(=O)c1[N+](=O)[O-]	0.2	-16	-2	-6	-10	5

Additional structures.
SMILES	TRPML1 agonist	TRPML1 blocker	Six1-Eya2 blk	TRPV1 potentiator	D2 PAM	CtBP-E1A inh
c1ccc(COc2ncnc3c2ncn3CCCNCc2ccccn2)cc1	-0.2	21	?	.	.	?
Cc1ccc(CCC(=O)Nc2ncc(Cc3cccc(Cl)c3Cl)s2)o1	0.3	9	-2	1	9	-5
CN(Cc1ccccc1)c1ccc(N2C(=O)CCC2=O)cc1[N+](=O)[O-]	1.4	27	5	-6	-12	20
CCCCN(CC)C(=O)Cn1cnc2ccc(S(=O)(=O)N3CCC(C)CC3)cc2c1=O	1.3	-21	11	22	12	-3
CCN(Cc1ccccc1)C(=O)c1ccccc1C	0.0	-17	5	4	-4	1
O=C(CNC(=O)c1ccc(Cl)cc1Cl)OCc1ccccc1	2.2	-11	-5	-24	-4	16
OCCC1CN(Cc2cccc3c2OCO3)CCN1C1CCCC1 (stereo not drawn)	0.0	-2	0	2	-13	5
O=C(Nc1ccc(F)cc1F)N1CCCN(CCOc2ccccc2)CC1	0.9	10	1	24	-11	.
Cc1ccc(S(=O)(=O)NCC(=O)N(CC(=O)NC(C)(C)C)Cc2cccs2)cc1	0.5	4	16	5	4	7
O=C(Nc1nnc(-c2cccs2)o1)c1ccco1	-0.8	-6	-19	-4	-5	-9
Cc1cccc(N=C(NO)c2nonc2N)c1	2.9	-1	2	-7	-3	-3
COc1cccc(COC(=O)c2ccc(S(=O)(=O)N3CCC(C)CC3)cc2)c1OC	5.2	17	20	-1	-5	27
C=CCNC(=O)c1c(N)n(-c2cccc(S(N)(=O)=O)c2)c2nc3ccccc3nc12	-0.8	21	-8	4	-8	-9
Cc1ccc(C(=O)CS(C)(=O)=O)cc1	-0.4	-24	2	-5	-7	3
Cc1c(C(=O)N(CCC#N)c2ccccc2)sc2nc3n(c(=O)c12)CCCC3	0.6	27	1	-2	-2	0
Cc1ccccc1C(=O)Nc1ccc(Br)cn1	-0.3	-5	4	-5	-12	9
CCC(C)c1ccc(S(=O)(=O)N2CCN(C(C)C(=O)NC3CCCC3)CC2)cc1 (stereo not drawn)	1.3	24	-3	-30	-6	15
CC1CCC(CN2CCN=C2Nc2ccccc2)CC1 (stereo not drawn)	0.1	-2	1	-8	-15	9
Cc1cc2c(cc1C)C(=O)NC(C)(C)C2	1.8	5	2	-12	-5	3
CCCN(CCC)C(=O)C1CCCN1S(=O)(=O)c1cccc2nsnc12 (stereo not drawn)	.	.	1	0	-3	9
OCC(O)CN1CCCC1 (stereo not drawn)	2.2	1	10	10	-6	-20
CC(=O)NC1CC2CCCC(C1)N2CC(=O)N1CCCc2ccccc21 (stereo not drawn)	-0.3	-9	6	15	-13	2
CCOC(=O)N1CCN(C(=O)Cn2nc(C)n3nc(-c4ccc(CC)cc4)cc3c2=O)CC1	0.5	2	2	-4	-7	.
COc1ccc(-n2c(C)cc(C(=O)CN3C(=O)c4ccccc4C3=O)c2C)cc1	0.1	-4	6	0	1	6
